Screens (PubChem)
HCMV NEC inh: inhibitors of HCMV UL50-UL53 interaction, biochemical, HTRF | HCMV UL50-UL53 nuclear egress complex (human cytomegalovirus) | normalized percent inhibition | 190,000 compounds, 0.15% hits | inhibition, % (no concentration beside the values);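 active means both replicates at 50% or more, plus weaker picks with an unusually low signal ratio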;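 further: stock transfer was 100 nL into about 20 µL; 0% = negative control wells and 100% = wells with untagged competitor protein; inactives centre near -12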
GIV-Gai inh: inhibitors of GIV peptide binding to Galpha-i3, primary screen, biochemical, fluorescence polarization, FITC-GIV GBA peptide, rat Galphai3. 210,000 compounds, 0.42% hits. Guanine nucleotide-binding protein G(i) subunit alpha-3 (Rattus norvegicus), P08753. AID 1224905, 2016. 90 min; hits give low values; scaled: aluminum fluoride 0%, vehicle 100%. percent of control (FP), % (no concentration beside the values);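 active means replicate mean at 85% of control or lower, very high polarization wells dropped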;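 further: wells of about 15 µL received 100 nL stock; the first replicate is given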
Target sequence (P08753 whole entry, looked up): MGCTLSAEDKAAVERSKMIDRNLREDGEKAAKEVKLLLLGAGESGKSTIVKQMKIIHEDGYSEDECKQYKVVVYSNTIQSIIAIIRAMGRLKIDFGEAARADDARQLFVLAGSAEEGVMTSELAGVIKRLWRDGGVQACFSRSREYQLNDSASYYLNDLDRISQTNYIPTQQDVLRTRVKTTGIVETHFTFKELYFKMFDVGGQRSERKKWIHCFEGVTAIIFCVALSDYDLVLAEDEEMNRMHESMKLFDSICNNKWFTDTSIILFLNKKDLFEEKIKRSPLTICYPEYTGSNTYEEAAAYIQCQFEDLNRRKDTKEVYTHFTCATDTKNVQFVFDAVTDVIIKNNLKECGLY
Sa growth 42C: S. aureus growth inhibition at 42 and 30 °C, primary screen, LtaS inhibitor project, RN4220, two temperatures; relative growth, % (no concentration beside the values); OD600, 20 h, 42 °C; hits give low values; 170,000 compounds, 0.53% hits;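 active means growth at 42 °C up to 50% and 20 or more points under that at 30 °C, or under 10% at both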;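 further: 300 nL library stock went into each well; scaled to the means of positive and negative controls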
Sa growth 42C second temp: further read-out of Sa growth 42C, marked with its call; relative growth, %; measured here: growth at 30 °C;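 optical density after 20 h as mean of two plates; 100% = untreated growth and lower means inhibition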
Active calls of the source: *; . = not tested or not shown; & = joins results of further samples.

SMILES	HCMV NEC inh	GIV-Gai inh	Sa growth 42C	Sa growth 42C second temp
Cc1cccc(S(=O)(=O)c2cn(Cc3ccccc3)c3cc(N4CCCC(C)C4)c(F)cc3c2=O)c1 (stereo unspecified)	.	103	83	91
CSC1=NCCN1C(=O)C1c2ccccc2Oc2ccccc21	-49	97	86	85
CCOc1ccccc1NC(=O)/C(C#N)=c1\s/c(=C\c2ccco2)c(=O)n1-c1c(C)cccc1C	-32	.	92	85
CC(NC(=O)COc1ccccc1)C(=O)N1CCN(c2ccccc2)CC1 (stereo unspecified)	3	.	112	94
COc1cccc(CNC(=O)c2sc3nc4n(c(=O)c3c2C)CCC4)c1	12	102	109	104
O=C(O)c1ccccc1Cc1cccs1	-9	95	122	92
COc1cc(C(=O)Nc2cccc(O)c2)c2ccccc2n1	-18	.	96	90
C=CCNC(=S)N/N=C1\CCc2ccccc21	-17	.	88	84
Cn1c(CSc2nc(N)cc(N)n2)nnc1SC/C=C/c1ccccc1	-29	105	95	90
CC(=O)Nc1ccc(NC(=O)C(C)Oc2ccccc2)cc1 (stereo unspecified)	-21	.	93	78
C=CCSc1nc2c(cnn2-c2ccccc2)c(=O)[nH]1	5&2	100	88	88
C/C(=N\NC(=O)c1cc2c3ccccc3n(C)c2s1)c1ccc(OCC(N)=O)cc1	-2	.	89	91
CCOc1cc(/C=c2/sc3n(c2=O)C(c2ccc(OC(C)=O)cc2)C(C(=O)OC)=C(C)N=3)ccc1OC(C)=O (stereo unspecified)	-17	105	.	.
Cc1ccc(N(C)S(=O)(=O)c2ccc(-c3coc(C)n3)cc2)cc1	.	101	95	77
Cc1ccc(/C=C/c2onc(C)c2S(=O)(=O)N2CCC(C(=O)N3CCN(c4cccc(C)c4)C(C)C3)CC2)cc1 (stereo unspecified)	.	100	102	92
Cc1cccc(Cn2c(=O)n(CC3CCC(C(=O)N4CCC(C)CC4)CC3)c(=O)c3sccc32)c1 (stereo unspecified)	.	98	106	87
CCC(CC)c1nnc(NC(=O)c2cccs2)s1	-14	103	87	89
c1ccc(CSc2nccc(-c3ccco3)n2)cc1	5	100	88	100
COC(=O)C(N)c1c[nH]c2ccccc12 (stereo unspecified)	18	.	101	100
COc1ccccc1N1CCN(C(=O)C2CC(=O)N(c3ccccc3)C2)CC1 (stereo unspecified)	-15	103	100	75
CCOc1cc(C2NC(C(=O)O)CS2)ccc1OCc1cccc(F)c1 (stereo unspecified)	-4	106	95	85
CCc1cc2c(-c3ccccc3)cc(=O)oc2c2c1OCN(Cc1ccc(C)cc1)C2	-26	102	104	89
O=C(CCCOc1ccc(Cl)cc1)NCC1CCCO1 (stereo unspecified)	6	.	115	90
Cc1c(CC(=O)O)c(=O)oc2cc3occ(-c4ccc(Cl)cc4)c3cc12	-1	111	83	41

Reformatted with two lines to a compound: part of the list above
Screens in order: HCMV NEC inh	GIV-Gai inh	Sa growth 42C	Sa growth 42C second temp
COc1cc(C(=O)Nc2cccc(O)c2)c2ccccc2n1
→ -18	.	96	90
C=CCNC(=S)N/N=C1\CCc2ccccc21
→ -17	.	88	84
Cn1c(CSc2nc(N)cc(N)n2)nnc1SC/C=C/c1ccccc1
→ -29	105	95	90
CC(=O)Nc1ccc(NC(=O)C(C)Oc2ccccc2)cc1 (stereo unspecified)
→ -21	.	93	78
C=CCSc1nc2c(cnn2-c2ccccc2)c(=O)[nH]1
→ 5&2	100	88	88
C/C(=N\NC(=O)c1cc2c3ccccc3n(C)c2s1)c1ccc(OCC(N)=O)cc1
→ -2	.	89	91
CCOc1cc(/C=c2/sc3n(c2=O)C(c2ccc(OC(C)=O)cc2)C(C(=O)OC)=C(C)N=3)ccc1OC(C)=O (stereo unspecified)
→ -17	105	.	.
Cc1ccc(N(C)S(=O)(=O)c2ccc(-c3coc(C)n3)cc2)cc1
→ .	101	95	77
Cc1ccc(/C=C/c2onc(C)c2S(=O)(=O)N2CCC(C(=O)N3CCN(c4cccc(C)c4)C(C)C3)CC2)cc1 (stereo unspecified)
→ .	100	102	92
Cc1cccc(Cn2c(=O)n(CC3CCC(C(=O)N4CCC(C)CC4)CC3)c(=O)c3sccc32)c1 (stereo unspecified)
→ .	98	106	87
CCC(CC)c1nnc(NC(=O)c2cccs2)s1
→ -14	103	87	89
c1ccc(CSc2nccc(-c3ccco3)n2)cc1
→ 5	100	88	100
COC(=O)C(N)c1c[nH]c2ccccc12 (stereo unspecified)
→ 18	.	101	100
COc1ccccc1N1CCN(C(=O)C2CC(=O)N(c3ccccc3)C2)CC1 (stereo unspecified)
→ -15	103	100	75
CCOc1cc(C2NC(C(=O)O)CS2)ccc1OCc1cccc(F)c1 (stereo unspecified)
→ -4	106	95	85
CCc1cc2c(-c3ccccc3)cc(=O)oc2c2c1OCN(Cc1ccc(C)cc1)C2
→ -26	102	104	89
O=C(CCCOc1ccc(Cl)cc1)NCC1CCCO1 (stereo unspecified)
→ 6	.	115	90
Cc1c(CC(=O)O)c(=O)oc2cc3occ(-c4ccc(Cl)cc4)c3cc12
→ -1	111	83	41

The results go on.
SMILES	HCMV NEC inh	GIV-Gai inh	Sa growth 42C	Sa growth 42C second temp
CCOC(=O)c1cc(S(=O)(=O)N2CCCC2C(=O)N2CCN(C3CCCCC3)CC2)cn1C (stereo unspecified)	-23	104	.	.
COc1ccc(CCNC(=O)c2cc3ccccc3s2)cc1OC	-3	104	109	74
C=Cn1c(C(=O)O)ccc1-c1ccc(CC)cc1	-14	.	126	93
C=CCSc1nc2ccccc2n1CC(=O)Nc1cccc(C#N)c1	11	.	113	89
Cc1ccc(/C=C2/SC(=S)N(c3ccc(S(=O)(=O)Nc4nccs4)cc3)C2=O)cc1	-4	105	108	53
COCCCn1c(-c2cccs2)csc1=Nc1ccc(S(=O)(=O)N2CCOCC2)cc1	-8	.	99	102
Cn1c(=O)oc2cc(S(=O)(=O)N3CCCC(C(=O)NCc4ccc(F)cc4)C3)ccc21 (stereo unspecified)	-10	115	94	105
Cc1cc(O)c(Cc2c(O)cc(C)[nH]c2=O)c(=O)[nH]1	-22	99	105	96
O=C(Nc1ccc(-c2nc3ccccc3o2)cc1)C1COc2ccccc2O1 (stereo unspecified)	-25	140	.	.
COc1ccc(-c2nc(N3CCN(C)CC3)c3ccccc3n2)cc1OC	-1	102	.	.
Cc1ccccc1NC(=O)c1ccc2ncsc2c1	-3	108	103	97
COc1ccc2c(c1)CC/C(=C\c1ccsc1)C2=O	-19	.	108	91
COc1cc(OC)cc(C(=O)Nc2nc(CC(=O)Nc3cc(OC)ccc3OC)cs2)c1	-6	109	.	.
COC(=O)C1CC(O)CN1S(=O)(=O)c1ccc(Cl)cc1 (stereo unspecified)	-19	.	95	91
Cc1cc(C)c(NC(=O)Cn2c(=O)n(Cc3ccco3)c(=O)c3ccc(C(=O)NC4CCCC4)cc32)c(C)c1	10	109	96	95
COC(=O)c1ccc(CNC(=O)COc2ccc(Cl)cc2Cl)cc1	-5	.	110	92
O=C(NC1CC(=O)N(c2cccc(F)c2)C1)c1ccc(S(=O)(=O)N2CCOCC2)cc1 (stereo unspecified)	.	96	100	82
Fc1cccc2c1CNC(=S)N2	-32	103	81	82
CCn1c(C(=O)N2CCCC(C(=O)NC3CCCC3)C2)cc2sccc21 (stereo unspecified)	.	106	92	86
O=C1c2ccccc2-c2n[nH]c3cccc1c23	-102&-120&-72&-77&-87&-117	102&108	89	86
NC(=O)c1c(F)c(F)c(N)c(F)c1F	9	.	99	97
Cn1c(SCC(=O)Nc2ccccc2)nc2ccccc2c1=O	-23	102	103	94
Oc1ccccc1-c1nc(/C=C/c2ccccc2Cl)no1	-2	97	100	89
COc1ccccc1CNC(=O)c1ccc(CSc2nc3ccncc3[nH]2)cc1	5	105	92	85
CC1CCCC(NC(=O)CSc2nc3ccccc3o2)C1C (stereo unspecified)	-30	.	81	90
CCCc1nnc(SCC(=O)NC2CC2)n1CC	1	102	109	103
CN(CC(C)(C)NS(=O)(=O)c1ccccc1)C1CCCCC1	-13	.	119	82
Cc1ccc2c(c1)c1c(c(=O)n(Cc3ccccc3)c(=O)n1CC(=O)Nc1cc(C)[nH]n1)n2C	-32	100	.	.
C(=NCc1ccccc1)c1cn(-c2ccccc2)nc1-c1cc2ccccc2o1	8	.	105	104
O=C(CC1CCCCCCCCCCC1)N1CCOCC1	.	105	107	96
Cc1ccc(-c2nc3cc(NC(=O)COc4ccccc4)ccc3o2)cc1	7	103	95	95
O=C(CCc1nc(CN2CCN(S(=O)(=O)c3ccc(Br)cc3)CC2)no1)N1CCCCC1	.	108	110	92
CCN1CCCC1CNC(=O)c1c(C)nn(-c2ccc(F)cc2)c1-n1cccc1 (stereo unspecified)	-1	110	103	93
COc1ccc(NC(=O)c2ccc(F)cc2)cc1CN1CCn2c(nc3ccccc32)C1	7	101	.	.
O=C(NC1CCCC1)c1ccc2c(c1)N(Cc1ccccc1)C(=O)c1ccccc1S2	.	100	120	86
COC(=O)Cn1c(=O)c2c(nc3n2CCN3c2ccccc2)n(C)c1=O	.	98	111	83
CC(=O)Oc1ccc(C)cc1C(O)(C(F)(F)F)C(F)(F)F	-15	.	31	12
COc1ccc(-c2c(C)c3cc(OC(=O)N4CCOCC4)ccc3oc2=O)cc1OC	.	96	119	84
CCOc1ccc(NC(=O)c2cc3c(n(-c4ccc(OC)cc4)c2=O)CC(C)(C)CC3=O)cc1	-15	99	96	87
CN(C)CCNC(=O)c1cc2c(s1)-c1ccccc1S(=O)(=O)C2	.	104	119	81
COc1ccc(NC(=O)c2c(NCc3ccc(OC)c(OC)c3OC)sc3c2CCC3)c(OC)c1	.	121	115	86
CN1C/C(=C/c2ccccn2)C(=O)/C(=C/c2ccccn2)C1	-11	.	92	77
CN1CCC/C1=C/C=C1\SC(=S)NC1=O	-125	.	93	89
COc1ccc(-c2csc3nc(-c4ccc(C)cc4)oc(=O)c23)cc1	-2	101	.	.
COc1ccc(Cl)cc1NC(=O)c1sc2nc3c(cc2c1N)CN(C)CC3	-44	106	108	91
COc1ccc(C(F)(F)F)cc1-n1ccc(-c2ccc(C)cc2)nc1=S	-7	103	102	97
CCCC(=O)NCCc1csc(-c2ccc(C)cc2)n1	-40	99	.	.
O=S(=O)(c1ccc(NC2CCC(O)CC2)nc1)N1CCCC1 (stereo unspecified)	-10	.	106	101
Cc1ccsc1-c1nc(CSCC(=O)O)c(C)o1	.	99	117	87
CCn1cc(CCC(=O)NC2CCCC2)c2ccccc21	-12	98	96	81
Cc1c(C(=O)Nc2cccc(Cl)c2)oc2ccc(S(=O)(=O)N3CCCCCC3)cc12	.	101	111	88
Cc1nn(-c2ccc(N3CCCCC3)nn2)c(C)c1CCC(=O)Nc1cccnc1	-67	101	.	.
COc1ccc(OC)c(C2NC(C(=O)O)C3C(=O)N(c4cccc(C(=O)O)c4)C(=O)C23)c1 (stereo unspecified)	.	107	96	94
O=C(c1cccs1)c1cn(CC(=O)N2CCCCCC2)c2ccccc12	10	107	102	103
O=C1c2ccccc2-c2nn(C(=O)c3ccncc3)c3cccc1c23	.	107	104	104
COc1ccc(/C=C(\C#N)C(=O)NCc2ccco2)cc1C	-64	103	140	86
CC(=O)Nc1ccc(NC(=O)c2cccc(C(=O)OC(C)C)n2)cc1	.	103	106	81
O=C1NC(=O)N(c2ccc(Cl)cc2)C(=O)/C1=C/c1ccc(Cl)cc1	.	105	85	96
O=C(COC(=O)c1ccc(F)cc1Cl)NCc1ccco1	17	.	88	98
CC(=O)Nc1cc(=O)[nH]c(-c2ccccn2)n1	2	103	89	89
More entries:
SMILES	HCMV NEC inh	GIV-Gai inh	Sa growth 42C	Sa growth 42C second temp
Cc1ccc(NC(=O)c2cccc(OC(=S)NCc3ccccc3)c2)cc1	.	97	102	77
Cc1ccc(-c2csc3ncn4nnnc4c23)cc1	-40&-9	99&94	94	84
O=C(CCNS(=O)(=O)c1ccc2c(c1)CCCC(=O)N2)NCc1ccccc1Cl	.	107	103	75
CN(C)S(=O)(=O)c1ccc2c(c1)nc(C(F)(F)F)n2CCC(=O)Nc1ccc(F)cc1	-28	105	.	.
O=C(Nc1cc(-c2cccs2)nn1-c1ccc(F)cc1)C1CCC1	5	107	99	107
CCn1cc(CCCC(=O)N2CCc3ccccc32)c2ccccc21	.	105	102	88
Cc1cc(C)c(NC(=O)c2cc(=O)c3ccccc3o2)c(C)c1	-54	.	96	91
CCC(=O)c1ccc(N2CCCC2)c(F)c1	-21	101	94	87
O=C(CCCn1nc(-c2ccccc2)c2ccccc21)NC1CCCc2ccccc21 (stereo unspecified)	-29	103	.	.
Cc1nn(-c2ncc(C(F)(F)F)cc2Cl)c(C)c1CS(=O)(=O)c1ccccc1	-18	102	.	.
Cc1nc2ccccc2nc1C	-3	105	97	90
O=C(O)CC1N=Cc2ccccc21 (stereo unspecified)	-10	.	86	79
COc1cccc(NC(=O)N2CCC3(CC2)Oc2ccccc2C(=O)N3Cc2ccccc2F)c1	-5	98	90	86
CCn1c(CCCNC(=O)C(C)(C)C)nc2ccccc21	-19	101	.	.
